Bioassay records as filed in PubChem BioAssay.
2A Renilla – FMDV 2A StopGo reporter, Renilla signal; HEK cells with a luciferase reporter of 2A StopGo recoding; Potency, µM (highest dose often 57.5 µM), for inactives: at the highest dose signal change, negative = less light; AID 1745857; 120,000 compounds, 0.32% hits; active means well fitted falling curve with a large enough effect; inconclusive means small, poorly fitted or top-dose-only effect; inactive means no such curve, though single readings can be large or run the other way; also: nearly all actives have a fitted effect of over 55% in size; overnight with compound
StopGo FLuc – lowers the firefly signal of an FMDV 2A StopGo reporter. 120,000 compounds, 0.23% hits. Potency, µM (top dose mostly 57.5 µM), inactives show at the highest dose signal change, negative = less light. HEK cells with a luciferase reporter of 2A StopGo recoding. AID 1745856; active = well fitted falling curve with a large enough effect; inconclusive = small, poorly fitted or top-dose-only effect; inactive = no such curve, though single readings can be large or run the other way; also: nearly all actives have a fitted effect of over 60% in size; overnight with compound
Numbers without * were called inactive; ? = inconclusive; [ ] = another dose, or the depositor's remark. % is scaled to controls: 0 for no effect and ±100 for the full control effect; potency is read from the fitted curve at half-maximal effect.

SMILES	2A Renilla	StopGo FLuc
O=C1CC(=O)CC(c2ccc(F)cc2)C1	4%	8%
COc1ccc(OCC(=O)Nc2cccc3ncccc23)cc1	?	-32%
O=C(Nc1c(N2CCCC2)c2ccccc2oc1=O)c1cccc(Cl)c1	20%	29%
Cc1cc(=O)oc2cc(OCC(=O)N3CCCc4ccccc43)ccc12	0%	19%
Cc1nc2cc(NC(=O)COc3ccccc3C)ccc2o1	21%	257%[activator]
COc1ccc(CNC(=O)CCc2c(C)nn(-c3ccc(N4CCCC4)nn3)c2C)c(OC)c1	3%	-18%
O=C(CSc1nncn2c1cc1sccc12)Nc1ccc(Br)cc1F	-4%	-14%
CCn1c(C(=O)NC2CCN(CC(=O)NC(C)C)CC2)cc2ccccc21	-16%	-6%
CCOC(=O)COc1ccc2c(=O)c(Oc3ccccc3Br)coc2c1	-10%	-9%
COc1ccc(NC(=O)C(=O)NCC(c2cccnc2)N2CCc3ccccc32)cc1OC (stereo not given)	-17%	12%
CCC1CCCCN1C(=O)Cn1cnc2c1c(=O)n(C)c(=O)n2C (stereo not given)	-1%	18%
COc1ccc(Oc2c(C)oc3cc(OC(=O)c4ccco4)ccc3c2=O)cc1	7%	7%

Sorted by heavy-atom count (rising): three of the compounds above
SMILES	2A Renilla	StopGo FLuc
O=C1CC(=O)CC(c2ccc(F)cc2)C1	4%	8%
CCC1CCCCN1C(=O)Cn1cnc2c1c(=O)n(C)c(=O)n2C (stereo not given)	-1%	18%
O=C(Nc1c(N2CCCC2)c2ccccc2oc1=O)c1cccc(Cl)c1	20%	29%

(more compounds)
SMILES	2A Renilla	StopGo FLuc
O=C(CCCn1c(=O)c2cccn2c2cccnc21)NCCc1ccc(Cl)cc1	-4%	-18%
CCOC(=O)c1ccccc1NC(=O)c1cnc(N2CCOCC2)c2ccccc12	9%	-20%
COc1ccc(-c2c(C)oc3c(C)c(OCCN4CCCCC4)ccc3c2=O)cc1	-7%	73%[activator]
COC(=O)C(C)OC(=O)c1cc(C(C)C)nc2ccccc12 (stereo not given)	-2%	-6%
CCOCc1cc(CN2CCN(c3ccccc3OC)CC2)c(O)c2ncccc12	?	-1%
CCOc1ccc(C2C(=O)N(C3CCCCC3)CC(=O)N2C2CCCC2)cc1OC (stereo not given)	-1%	-24%
Cc1cc2[nH]c(=O)c(=O)[nH]c2cc1S(=O)(=O)N1CCN(c2cccc(C(F)(F)F)c2)CC1	-14%	-2%
CCC(C)NCc1ccc(C)cc1 (stereo not given)	-1%	-5%
CC(C)n1cnc2nc(CSc3ccc(NC(=O)c4cccc(F)c4)cc3)cc(=O)n21	29%	60%[activator]
O=C(Cc1cccs1)N(Cc1cccnc1)C1CC1	13%	0%
O=C(Nc1ccc2c(c1)CCC2)c1cc(-c2ccncc2)nc2ccc(Br)cc12	15%	12%
Fc1ccc(-c2cn3cc(Cc4ccc(Cl)cc4)sc3n2)cc1	24%	440%[activator]

Four of these compounds, set out differently.
| canonical_smiles | 2A Renilla | StopGo FLuc |
| --- | --- | --- |
| Cc1nc2cc(NC(=O)COc3ccccc3C)ccc2o1 | 21% | 257%[activator] |
| COc1ccc(CNC(=O)CCc2c(C)nn(-c3ccc(N4CCCC4)nn3)c2C)c(OC)c1 | 3% | -18% |
| O=C(CSc1nncn2c1cc1sccc12)Nc1ccc(Br)cc1F | -4% | -14% |
| CCn1c(C(=O)NC2CCN(CC(=O)NC(C)C)CC2)cc2ccccc21 | -16% | -6% |

Further entries follow.
SMILES	2A Renilla	StopGo FLuc
Nc1ccc(O)c([N+](=O)[O-])c1	-10%[114 µM]	39%[activator][115 µM]
CNC(=O)c1c(NC(=O)/C=C/c2ccccc2Cl)sc2c1CCC2	-8%	-14%
CCOc1ccccc1NC(=O)N1CC(CC)Oc2ccccc21 (stereo not given)	4%	-21%
CCN(CC)C(=O)CNC(=O)c1cc2ccccc2c(OC)n1	36%	245%[activator]
CC(Sc1ccc(Br)cn1)C(=O)Nc1cccc(Br)c1 (stereo not given)	37%[activator]	12%
CSc1ccc(CCNC(=O)c2cc3c(-c4ccccc4F)nn(C)c3s2)cc1	1%	-1%
CC(C)=CCNc1ncnc2c1ncn2[C@@H]1O[C@H](CO)[C@@H](O)[C@H]1O	9%	6%[11.5 µM]
O=C(Nc1ccc2nc[nH]c(=O)c2c1)c1ccc(Br)cc1	21%	0%
CCC(=O)Nc1ccc2nc(SCc3ccc(F)cc3)sc2c1	0%	81%[activator]
O=C(Nc1ccnn1Cc1ccccc1)c1cc(=O)c2ccc(Br)cc2o1	-4%	4%
CC(CCc1ccco1)NC(=O)c1ccc(Cl)c(S(C)(=O)=O)c1 (stereo not given)	4%	8%
CC(=O)c1ccccc1OCc1ccccc1C	64%[activator]	103%[activator]
Cc1oc(-c2ccc(C(=O)Nc3ccccc3F)cc2)nc1COc1ccccc1	-17%	10%
Cc1cccc(OCCN(C)C(C)c2nc3ccccc3c(=O)[nH]2)c1 (stereo not given)	12%	14%
CCCCN(C)S(=O)(=O)c1cc(-c2nc(-c3cccc(F)c3)no2)sc1C	8%	12%
COc1ccc(C(=O)/C(C#N)=C\c2ccccc2C(F)(F)F)cc1	13%	3%
CCCCCn1c(-c2cccc(C)c2)nc2ccccc21	?	?
COCCCNc1ncnc2c1c(-c1ccccc1)cn2-c1ccc(C)c(Cl)c1	1%	-13%
CC(C)NCC(O)COc1cccc2[nH]ccc12 (stereo not given)	6%	2%[11.5 µM]
CCSc1ncc(Cl)c(C(=O)Nc2c(C(=O)c3ccc(C)c(F)c3)oc3ccccc23)n1	-15%	-13%
Cc1ccc(OCC(=O)Nc2ccc3[nH]c(=O)sc3c2)cc1	-4%	-23%
O=C1CN(CCC2=CCCCC2)[C@H]2CS(=O)(=O)C[C@H]2N1c1ccccc1	4%	0%
COc1ccc(S(=O)(=O)Nc2ccc(-c3cn4ccsc4n3)cc2)cc1C	25%	2%
N#Cc1cccc(C(=O)OCc2cccc3cccnc23)c1	0%	37%[activator]
CCCCCCn1cc(CN2CC=CS2(=O)=O)nn1	-3%	35%[activator]
COc1cc(C(=O)OCCCC(=O)c2ccc(Br)cc2)ccc1OCc1ccc(Cl)cc1	2%	24%
CC(C)CCn1c(N2CCN(CCCc3ccccc3)CC2)nc2c1c(=O)[nH]c(=O)n2C	-18%	-19%
Cc1c(C(=O)NCc2coc(-c3cccs3)n2)cccc1[N+](=O)[O-]	18%	47%[activator]
COC(=O)c1nnn(-c2cccc(C)c2)c1N	0%	21%
CCOc1cc(C(=O)O)cc(-c2ccccc2)c1OC	0%	0%
CCc1cccc2c(C(C)=O)cn(CC(=O)NC3CC3)c12	-9%	10%
CCOc1ccc(Cn2c(CNS(=O)(=O)c3cccs3)nc3cccnc32)cc1	165%[activator]	-1%
O=S(=O)(c1ccc(Cl)cc1)c1nnn2c1nc(NCc1ccc3c(c1)OCO3)c1sccc12	-12%	0%
O=C(NC1CCN(CCCc2nc3ccccc3o2)CC1)C1CC1	-17%	-7%
Cc1c(C(=O)NCc2ccc(Cl)cc2)sc2nc3n(c(=O)c12)CCCCC3	11%	6%
Cc1ccc(Cl)cc1NC(=O)CCS(=O)(=O)c1ccc2c(c1)n(C)c(=O)c(=O)n2C	-11%	37%[activator]

Five compounds picked at random from those above, as already listed:
SMILES	2A Renilla	StopGo FLuc
O=S(=O)(c1ccc(Cl)cc1)c1nnn2c1nc(NCc1ccc3c(c1)OCO3)c1sccc12	-12%	0%
CCOc1ccc(Cn2c(CNS(=O)(=O)c3cccs3)nc3cccnc32)cc1	165%[activator]	-1%
Cc1c(C(=O)NCc2coc(-c3cccs3)n2)cccc1[N+](=O)[O-]	18%	47%[activator]
CC(C)CCn1c(N2CCN(CCCc3ccccc3)CC2)nc2c1c(=O)[nH]c(=O)n2C	-18%	-19%
COc1cc(C(=O)OCCCC(=O)c2ccc(Br)cc2)ccc1OCc1ccc(Cl)cc1	2%	24%

New compounds follow:
SMILES	2A Renilla	StopGo FLuc
CCCC(=O)N1N=C(c2cccc(NS(=O)(=O)CC)c2)CC1c1ccco1 (stereo not given)	4%	-7%
CCN(CC)CCN1C(=O)c2ccccc2NC1c1ccccc1F (stereo not given)	-9%	1%
Cc1ccc(CNC(=O)c2ccc(Cn3c(=O)c4ccccc4n(CC(=O)Nc4ccc(C)cc4)c3=O)cc2)cc1	2%	-5%
COc1ccc(NC(=O)CSc2nc(-c3ccccc3)c3ccccc3n2)cc1	-17%	-15%
CCOC(=O)c1ccc(NC(=O)c2nc(SC(C)C)ncc2Cl)cc1	0%	-13%
Cc1c(C(=O)c2ccccc2)c2ccccn2c1CCC#N	20%	17%
CCn1c(SCc2nc(-c3cccc(C)c3)oc2C)nc2c(=O)[nH]cnc21	23%	181%[activator]
O/N=C1\CCCCC1c1nccc2ccccc12 (stereo not given)	4%	7%
COC(=O)C1CCCCN1S(=O)(=O)c1cc(Cl)ccc1Cl (stereo not given)	9%	-1%
COc1ccc(-n2c3c(c(=O)[nH]c2=O)C(NC(=O)c2ccccc2Cl)(C(F)(F)F)C(=O)N3)cc1 (stereo not given)	-3%	-17%
COCCNc1nc2c(c(=O)n(Cc3cccc(Br)c3)c(=O)n2C)n1C	-7%	-11%
COc1ccc(N2CCN(C(=O)c3nn(C)c4c3CS(=O)(=O)c3ccccc3-4)CC2)cc1	2%	-10%
CCN(C(=O)c1cc(=O)c2cc(C)ccc2o1)c1ccccc1	9%	2%
COc1ccc2c(C)cc(SCC(=O)N(C)C3CCCCC3)nc2c1	3%	-21%
CCc1ccccc1NC(=O)Cn1nnc(C(=O)NCc2ccccc2Cl)c1N	-11%	-2%
CCC(C)NC(=O)N1CCC2(CC1)Nc1ccccc1-n1cccc12 (stereo not given)	-6%	-7%
O=C(Cn1cnc2onc(-c3ccc(F)cc3)c2c1=O)Nc1ccc(F)c(Cl)c1	-13%	1%
Cc1ccc2c(COC(=O)CNC(=O)c3ccccc3)cc(=O)oc2c1C	-11%	-3%
COC(=O)c1c(C)oc2cc3c(C(=O)OC)c(C)oc3cc12	7%	12%
CCN(c1ccccc1)c1nc2c(c(=O)[nH]c(=O)n2C)n1CC(=O)O	-8%	-9%
O=C1CC(c2ccc(Cl)cc2)c2cc3c(cc2N1)OCCO3 (stereo not given)	-23%	?
O=C1Cc2cc(-c3csc(NC4CCCCC4)n3)cc3c2N1CCC3	-6%	77%[activator]
COc1ccc(CNCc2c(C(=O)O)c(C)n(Cc3ccccc3C)c2C)c(OC)c1	-13%	-8%
Cc1cc(C)n(-c2nnc(Nc3ccc(C(C)C)cc3)c3ccccc23)n1	4%	18%
O=C(NC1CCCC1)c1ccc(CSc2nc3ccncc3n2Cc2cccc(F)c2)cc1	9%	-17%
CCc1ccc(CCC(=O)NCc2cccnc2)cc1	9%	3%
CC(c1ccc(F)cc1)N1CCN(c2oc(-c3ccco3)nc2C#N)CC1 (stereo not given)	-6%	-18%
COc1ccc(C2=NS(=O)(=O)N(C)C(C(=O)N3CCN(c4ccc(F)cc4)CC3)=C2)cc1	?	?
Cc1ccc2c(c1)Oc1ccc(S(=O)(=O)N(C)c3ccccc3Cl)cc1C(=O)N2	?	?
COc1ccc(-c2cc(C(F)(F)F)nc(SCC(=O)Nc3ccc(C(C)=O)cc3)n2)cc1	14%	20%
CN(CCOc1ccc(CC2SC(=O)NC2=O)cc1)c1ccccn1 (stereo not given)	-11%	-9%
CCCNC(=O)c1ccc(Cn2c(SCC(=O)NC(C)C)nc3ccccc3c2=O)cc1	-1%	10%
COc1cc(/C=C(\C#N)c2ccc(F)cc2)ccc1OCc1ccccc1	15%	0%
CC(SC1CCCC1)C(=O)Nc1cccc(Cl)c1 (stereo not given)	16%	31%[activator]
Cc1cccc(C)c1NC(=O)CN1C(=O)c2ccccc2Sc2ncccc21	-2%	-6%
CCOc1ccc(C(=O)NCc2nc(-c3ccc(Cl)cc3)no2)cc1OCC	3%	-9%
O=C(CSc1ccc2ccccc2n1)Nc1ccc2c(c1)CCC2	-1%	59%[activator]
CCc1cc(=O)n(CC(=O)N2CCCCC2C)c(-c2ccccc2)n1 (stereo not given)	44%[activator]	0%
Cc1cccc(CCn2c(=O)c3ccccc3n(Cc3cccc(F)c3)c2=O)c1	-7%	6%
Cc1ccc(C(=O)N2CCCCC2)cc1NC(=O)c1nsc2ccccc12	-6%	5%
CCc1nc(C)cn1S(=O)(=O)c1ccc(Cl)c(Cl)c1OC	?	?
C[C@]12CC[C@@H]3c4ccc(O)cc4C[C@@H](CCCCCCCCCS(=O)CCCC(F)(F)C(F)(F)F)[C@H]3[C@@H]1CC[C@@H]2O (stereo not given in full)	-3%	4%
CCCCCCCCCC(=O)Nc1c(C)cc(C)cc1C	16%	10%
Cc1cccc(CN2CCN(S(=O)(=O)c3c(C)noc3C)CC2)c1	5%	1%
CCOCCCNC(=S)NC1CC1	-2%	11%
COC(=O)C1=C(N)OC2=C(C(=O)CCC2)C1c1ccccc1Cl (stereo not given)	8%	5%
CC(C)C(=O)NC(Nc1ccccc1C(F)(F)F)C(Cl)(Cl)Cl (stereo not given)	10%	1%
CCc1nonc1NC(=O)c1oc2ccc(Br)cc2c1C	-13%	3%
Cc1ccc(NC(=O)c2ccc(C3Nc4cc(C(F)(F)F)ccc4S(=O)(=O)N3)cc2)cc1C (stereo not given)	-2%	168%[activator]

A portion of the library (hit frequency here may not be typical).
